RecA intein inh = inhibitors of M. tuberculosis RecA intein splicing; cell-free RecA intein splicing, fluorescence; 290,000 compounds, 0.75% hits; AID 2221; inhibition, %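 (about 9 µM by stock and volumes)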; P9WHJ3; in the data active = inhibition above about 30%; inconclusive = no clear call, values can overlap the other calls;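 note: 0% = vehicle wells and 100% = reference inhibitor control wells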
Target sequence (P9WHJ3 whole entry, looked up): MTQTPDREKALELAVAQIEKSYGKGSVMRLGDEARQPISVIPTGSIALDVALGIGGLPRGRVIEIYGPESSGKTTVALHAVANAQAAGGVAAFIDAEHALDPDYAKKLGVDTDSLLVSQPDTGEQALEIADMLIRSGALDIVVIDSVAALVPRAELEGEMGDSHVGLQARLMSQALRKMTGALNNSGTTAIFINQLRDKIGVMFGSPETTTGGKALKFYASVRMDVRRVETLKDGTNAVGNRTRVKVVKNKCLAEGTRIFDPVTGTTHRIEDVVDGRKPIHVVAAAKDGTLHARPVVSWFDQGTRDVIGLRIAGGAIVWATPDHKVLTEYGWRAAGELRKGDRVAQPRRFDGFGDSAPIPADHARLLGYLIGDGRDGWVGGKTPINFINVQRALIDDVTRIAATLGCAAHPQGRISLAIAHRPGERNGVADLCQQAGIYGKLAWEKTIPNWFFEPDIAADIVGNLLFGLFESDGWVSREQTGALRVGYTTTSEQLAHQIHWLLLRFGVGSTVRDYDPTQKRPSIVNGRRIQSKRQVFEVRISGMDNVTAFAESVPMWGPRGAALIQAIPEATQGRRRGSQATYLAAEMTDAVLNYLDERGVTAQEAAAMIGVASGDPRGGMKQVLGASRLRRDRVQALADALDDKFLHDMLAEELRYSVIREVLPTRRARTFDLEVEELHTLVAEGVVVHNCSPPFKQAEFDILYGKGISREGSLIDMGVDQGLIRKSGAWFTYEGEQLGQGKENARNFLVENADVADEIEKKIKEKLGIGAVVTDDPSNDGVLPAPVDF
YopH PTP inh = YopH (Yersinia) phosphatase inhibition | fluorescence Ex485/Em525 | inhibition, %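 (about 10 µM by stock and volumes)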 | 140,000 compounds, 0.16% hits | AID 898;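 active = inhibition of 50% or more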;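 note: controls were vehicle for no effect and minimum signal wells for full effect; inactives centre near -20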
Arbovirus inh = arbovirus infection inhibition | arbovirus infection cell-based antiviral screen | inhibition, % at 10 µM | 200,000 compounds, 0.37% hits | AID 1251;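 active = inhibition from about 30%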;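 note: bluetongue infection of BSR cells; cell survival read as ATP light after 72 h; 0% = infected wells without compound and 100% = uninfected wells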
Mtb bLac sens = beta-lactam sensitization of Mtb H37Rv; M. tuberculosis H37Rv growth with meropenem, percent inhibition; hits of this screen are not shown here; inhibition, % at 25 µM; 330,000 compounds, 0.27% hits; AID 434955;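 active = about 74% or more and at least 40 points above the plate without the antibiotic, then above 30% in a dose series; inconclusive = first-round hits that could not be retested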;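 note: growth measured after seven days incubation then overnight dye step; 0% = bacteria only wells and 100% = bacteria with antibiotic; twin plates without the antibiotic show which effects depend on it; some results filed as inactive read as strong as hits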
Mtb growth = M. tuberculosis H37Rv growth inhibitors, H37Rv strain (AID 1626) | M. tuberculosis H37Rv growth inhibition; higher % means a stronger effect | 220,000 compounds, 0.95% hits | inhibition, % at 10 µM; hits with a dose series show IC50 in µM;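 active = confirmed in a dose series; inconclusive = inhibition above 80% but not taken into the dose series; inactive = below 80% or under 30% at every dose of the series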;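 note: bacteria incubated seven days before Alamar blue readout; 0% = bacteria only wells and 100% = bacteria with antibiotic wells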
Arbovirus inh repeat = recorded beside Arbovirus inh, whose call it bears; inhibition, %; measured here: 10K subset replicate screen; many hits read low in the repeat;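 first of two repeat runs on a subset; 0% = infected and 100% = uninfected wells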
* = called active by the depositor; ? = inconclusive; . = no result given; & = joins results of further samples. This is a subset; rates above refer to the full screens.

SMILES	RecA intein inh	YopH PTP inh	Arbovirus inh	Mtb bLac sens	Mtb growth	others
OC(CNC1Cc2ccccc2C1)COc1ccc(F)cc1 (configuration not stated)	0.6	.	.	-3	16%
O=C(O)c1ccc(COc2c(F)c(F)cc(F)c2F)o1	0.6	-5	5	-9	-4%
O=C(Nc1ccccn1)c1cc(-c2cccnc2)nc2ccc(Br)cc12	5.2	-14	4	-1	-5%
O=C(CCn1c(=O)oc2ccccc21)N(Cc1ccccc1)c1ccccc1	0.8	.	-1	0	-2%
CC(=O)c1ccccc1Oc1cc(NN2CCCCC2)c([N+](=O)[O-])cc1[N+](=O)[O-]	5.2	.	.	-9	.
Cc1cc(S(=O)(=O)Nc2ccc(C(=O)NCC(c3ccco3)N(C)C)cc2)ccc1F (configuration not stated)	-1.4	.	.	4	.
Cc1ccc(CO/N=C/c2c(O)cc(C)oc2=O)cc1	1.5	.	2	-5	1%
COc1ccc(-c2nnc(Nc3nc4c(OC)cccc4s3)o2)cc1	-3.1	-34	-26	?	.
Cc1ccc(CN2C(=O)C3CCCN3c3ccc(S(=O)(=O)N4CCOCC4)cc32)cc1 (configuration not stated)	-3.4	-39	-2	?	2%
Cn1cnnc1SCC(=O)N1CCN(C(=O)c2ccco2)CC1	-1.4	.	11	-9	-3%
COc1c2ccoc2nc2c(OC)c(OCC(OC(C)=O)C(C)(C)O)ccc12 (configuration not stated)	-0.4	.	2	-1	.
O=C(NC(NC(=S)Nc1ccccc1C(=O)O)C(Cl)(Cl)Cl)c1ccco1 (configuration not stated)	0.7	-46	3	2	11%
COCCN(C(=O)CSc1nnc(-c2ccc(C)c(C)c2)o1)c1c(N)n(CC(C)C)c(=O)[nH]c1=O	0.7	.	.	0	.
CCc1cccc2c(C#N)cn(CC(=O)N3CCOCC3)c12	-0.4	-31	3	-10	-11%
COC(=O)c1ccc(Cl)c(NC(=O)CN(c2ccc3c(c2)OCO3)S(C)(=O)=O)c1	-1.7	-34	-5	-7	1%
CCOc1ccc(Br)cc1S(=O)(=O)NC1CC(C)(C)NC(C)(C)C1	-0.1	.	.	-5	.
CC(=O)c1cccc(N(CC(=O)Nc2ccccc2F)S(C)(=O)=O)c1	-3.9	.	-2	-8	6%
CCC(=O)OCCNc1cc(Sc2nc3ccccc3[nH]2)c2nonc2c1[N+](=O)[O-]	.	-28	-48	100	42%
N/C(COc1cc(Cl)cc(Cl)c1)=N\O	1.5	.	.	-12	-2%
Nc1cc(N2CCCC2)c(Cl)cc1[N+](=O)[O-]	4.3	.	1	1	4%
CCOc1cc2[nH]c(=O)n(CCCCCC(=O)NC3CCCC3)c(=O)c2cc1OCC	-0.5	.	.	-6	.
CC(C)NCC(O)COc1ccc(CCOCC2CC2)cc1 (configuration not stated)	3.2&0.0	1	12&2	-4	4%&-1%
CCC(NC(=O)c1[nH]c(C)c(C(C)=O)c1C)c1ccc(Br)cc1 (configuration not stated)	7.0	.	.	-2	.
Cc1ccc(S(=O)(=O)CCC(=O)OCC(=O)NCc2ccc(Cl)cc2)cc1	-1.5	.	2	-1	-1%
Cc1c(C(=O)Nc2c(F)cccc2F)sc2ncnc(N3CCN(c4ccccc4)CC3)c12	0.8	.	16	99	?
CN1CCC(OC(=O)c2ccc(Cl)cc2Cl)CC1	0.8	.	-16	-3	-7%
CO/N=C(\C)C(Cc1ccc(Cl)nc1)Cc1ccc(Cl)nc1	0.1	.	.	6	.
Cc1ccc(SCc2cc(=O)n3ccsc3n2)c(C)c1	-0.9	10	-7	4	-7%
Cc1ccc(O)c(-c2cc(C(F)(F)F)[nH]n2)c1	-0.8	-4	11	5	3%
Cc1ccccc1NS(=O)(=O)c1cc(S(C)(=O)=O)ccc1C	1.2	-28	1	1	-2%
CCCCCCC(=O)Oc1cccc(N2C(=O)C3CCCCC3C2=O)c1 (configuration not stated)	.	.	-2	3	14%
COc1cccc2cc(C(=O)NCc3ccco3)c(=Nc3ccc(C(=O)O)cc3)oc12	-0.3	-6	0	5	7%
CCOc1c2ccc(C(=O)NCc3ccc4c(c3)OCO4)cc2nn1CCOC	-1.7	-33	-1	0	-6%
O=C(N1CCc2[nH]c3ccccc3c2C1)C(F)(F)F	-19	.	.	?	.
Cc1cccc(C(=O)N2CCN(Cc3nc4sc5c(c4c(=O)[nH]3)CCCC5)CC2)c1	-4.8	.	.	91	.
COC(=O)C(Cc1ccccc1)NC(=O)CC(C)CC(=O)Nc1ccc(OC)cc1OC (configuration not stated)	0.4	.	.	3	.
Cc1nc2ccccc2c2oc(C(=O)NCC3CCCO3)cc12 (configuration not stated)	-1.7	-20	3	3	5%
CCNS(=O)(=O)c1ccc(NC(=O)CC(C)c2ccccc2)cc1 (configuration not stated)	1.1	.	-1	-13	4%
CCn1cc(C(=O)O)c(=O)c2cc(F)c(N/N=C/c3ccccc3)cc21	-13	-32	-9	.	2%
CC(=O)Nc1ccc(Sc2ccccc2C(=O)Nc2ccc(F)cc2)cn1	1.0	.	-1	5	-3%
COc1ccc(/C(C)=N/NC(=O)CNC(=O)/C=C\c2ccccc2)c(OC)c1	-3.1	.	.	5	.
COc1cc(/C=C/C(=O)N2CCN(Cc3ccccc3)CC2)cc(OC)c1OC	-0.2	.	.	3	.
Cn1nc(CC(=O)NC2CCCCCCCCCCC2)c2ccccc2c1=O	.	-7	4	-14	.
O=C(Nc1ccc(-c2csc(Nc3ccccc3)n2)cc1)c1cccc(C(F)(F)F)c1	19	.	.	25	15%
CCOc1ccc(C2c3c(oc4cc(C)c(C)cc4c3=O)C(=O)N2CCCN2CCOCC2)cc1 (configuration not stated)	-1.5	-43	6	2	-9%	Arbovirus inh repeat=-4
CC(C)(C)n1nnnc1SCC(=O)Nc1nn(-c2ccccc2)nc1C(N)=O	-6.3	.	14	4	-12%
CN(C)c1ccc(C(C(=O)NCC2CCCO2)N(C(=O)c2snc(C(N)=O)c2N)c2ccc3c(c2)OCO3)cc1 (configuration not stated)	-2.4	.	.	7	.
Nc1cc(Cl)ccc1Oc1ccc2ccccc2c1	3.9	-6	0	.	11%
Cc1cc(C)c(NC(=O)CSc2nc(COc3ccccc3)nc3ccccc23)c(C)c1	0.5	-49	0	58	5%
CC1(C)Cc2c(cnn2-c2ccccc2)C(=O)/C1=N\NC(=O)c1ccccc1O	0.2	0	8	14	10%

Retrieved by structure from the entries so far, three records:
SMILES	RecA intein inh	YopH PTP inh	Arbovirus inh	Mtb bLac sens	Mtb growth	others
Cc1cc(C)c(NC(=O)CSc2nc(COc3ccccc3)nc3ccccc23)c(C)c1	0.5	-49	0	58	5%
CC(C)(C)n1nnnc1SCC(=O)Nc1nn(-c2ccccc2)nc1C(N)=O	-6.3	.	14	4	-12%
COc1ccc(/C(C)=N/NC(=O)CNC(=O)/C=C\c2ccccc2)c(OC)c1	-3.1	.	.	5	.

Seven neighbouring records out of the list so far:
SMILES	RecA intein inh	YopH PTP inh	Arbovirus inh	Mtb bLac sens	Mtb growth	others
O=C(Nc1ccc(-c2csc(Nc3ccccc3)n2)cc1)c1cccc(C(F)(F)F)c1	19	.	.	25	15%
CCOc1ccc(C2c3c(oc4cc(C)c(C)cc4c3=O)C(=O)N2CCCN2CCOCC2)cc1 (configuration not stated)	-1.5	-43	6	2	-9%	Arbovirus inh repeat=-4
CC(C)(C)n1nnnc1SCC(=O)Nc1nn(-c2ccccc2)nc1C(N)=O	-6.3	.	14	4	-12%
CN(C)c1ccc(C(C(=O)NCC2CCCO2)N(C(=O)c2snc(C(N)=O)c2N)c2ccc3c(c2)OCO3)cc1 (configuration not stated)	-2.4	.	.	7	.
Nc1cc(Cl)ccc1Oc1ccc2ccccc2c1	3.9	-6	0	.	11%
Cc1cc(C)c(NC(=O)CSc2nc(COc3ccccc3)nc3ccccc23)c(C)c1	0.5	-49	0	58	5%
CC1(C)Cc2c(cnn2-c2ccccc2)C(=O)/C1=N\NC(=O)c1ccccc1O	0.2	0	8	14	10%

Later entries.
SMILES	RecA intein inh	YopH PTP inh	Arbovirus inh	Mtb bLac sens	Mtb growth	others
O=C(CSc1nc(-c2ccccc2)cs1)N1CCN(C(=O)c2ccco2)CC1	-0.6	-25	4	1	-8%
CCOC(=O)c1cnc2c(-c3ccccc3)cnn2c1C	-1.0	.	-15	6	6%
CCc1ccc(N2C(=O)CC(N3CCN(Cc4ccc5c(c4)OCO5)CC3)C2=O)cc1 (configuration not stated)	3.1	.	15	-6	-5%
CCCCN=C1NN=C(c2ccc(C)c(C)c2)CS1	10	.	-5	6	12%
O=C(NC(CO)C(O)c1ccc([N+](=O)[O-])cc1)C(Cl)Cl (configuration not stated)	2.5	.	-6	98	?
CCCCOC(=O)C1CCCC(C(=O)OCCCC)N1 (configuration not stated)	1.1	-22	4	99	8%
S=C(Cc1ccc(Cl)cc1)N1CCOCC1	0.6	.	8	-9	1%
FC(F)(F)c1ccc(Cl)c(-n2c(-c3cc(C4CC4)[nH]n3)n[nH]c2=S)c1	-3.6	.	.	-9	-11%
CC(C(=O)NC(=O)NC1CCCCC1)N(C)CC(=O)Nc1ccc(F)c(F)c1F (configuration not stated)	-2.5	.	.	92	.
COC(=O)C1=C(c2ccccc2)C[C@@H]2CC[C@H]1N2C(=O)NCC1CC1	-1.3	.	.	-13	-4%
CCOc1ccc(Cc2nc(C)c(CC(=O)N3CCOCC3)c(=O)[nH]2)cc1	-2.2	-47	0	-11	-6%
N=C1c2ccccc2CN1c1ncccn1	.	.	8	-5	-10%
CCOc1ccc(/C=C2\SC(=S)NC2=O)cc1OC	2.5	.	7	28	-1%
O=C(c1cccs1)N1CCc2ccccc21	0.7	-23	-3	-5	5%	Arbovirus inh repeat=0
O=C1NC(=Nc2ccc(O)cc2)S/C1=C\C=C\c1ccco1	7.7	.	.	1	-5%
Cc1noc(C)c1COC(=O)Cc1ccc(Cl)cc1	1.5	6	-4	-1	-11%
CCc1nc2oc3ccccc3c(=O)c2c(=O)n1CCOC	.	-27	2	4	0%
CCCCc1nc(SCc2ccc([N+](=O)[O-])cc2)n[nH]1	4.4	.	17	-6	4%
CC(=O)N1CCc2c(sc3c2c(=O)n(Cc2ccccc2)c(=O)n3CC(=O)NCC2CCCO2)C1 (configuration not stated)	0.1	.	.	1	.
O=C(COC(=O)c1cc(F)c(F)cc1Cl)NC1CC1	-1.2	.	3	65	11%

6 entries already listed, arranged by molecular weight, low to high.
SMILES	RecA intein inh	YopH PTP inh	Arbovirus inh	Mtb bLac sens	Mtb growth	others
N=C1c2ccccc2CN1c1ncccn1	.	.	8	-5	-10%
O=C(c1cccs1)N1CCc2ccccc21	0.7	-23	-3	-5	5%	Arbovirus inh repeat=0
CCOc1ccc(/C=C2\SC(=S)NC2=O)cc1OC	2.5	.	7	28	-1%
CCc1nc2oc3ccccc3c(=O)c2c(=O)n1CCOC	.	-27	2	4	0%
O=C1NC(=Nc2ccc(O)cc2)S/C1=C\C=C\c1ccco1	7.7	.	.	1	-5%
CC(=O)N1CCc2c(sc3c2c(=O)n(Cc2ccccc2)c(=O)n3CC(=O)NCC2CCCO2)C1 (configuration not stated)	0.1	.	.	1	.

Continuation.
SMILES	RecA intein inh	YopH PTP inh	Arbovirus inh	Mtb bLac sens	Mtb growth	others
COc1ccc(C2(O)CN(c3ccccc3)C3=[N+]2CCS3)cc1OC (configuration not stated)	0.0	.	-2	3	6%
CC(C)CCOc1ccc(CO[C@@H]2[C@H]3OC(C)(C)O[C@H]3O[C@@H]2C(O)CO)cc1 (some centres not stated)	-1.1	.	.	-6	.
CCN1CCN(CNC(=O)c2cnccn2)CC1	1.7	-39	3	4	-5%
Cc1ccsc1/C=C1/C(=O)NN(c2ccccc2)C1=O	-3.8	.	-20	12	38%
O=C(Oc1nsnc1N1CCOCC1)N(c1ccccc1)c1ccccc1	2.1	-35	-15	16	6%
O=c1[nH]ncc(NCCc2ccccc2)c1Cl	-2.1	.	-2	-3	-4%
CCCCSc1nc2ccc(Nc3nc(N4CCOCC4)nc(N4CCOCC4)n3)cc2s1	2.6	-11	-10	96	7%
COc1ccc(NC(=S)N2CCN(S(=O)(=O)c3ccc(C)cc3)CC2)cc1	1.2	.	.	-3	.
Cc1c(C(=O)N2CCN(c3ccccc3F)CC2)oc2c1C(=O)CC(C)(C)C2	1.5	.	.	1	.
CCC(C)n1c(SCC(=O)NC(=O)Nc2ccc3c(c2)OCCO3)nc2ccccc2c1=O (configuration not stated)	1.1	-41	8	-1	-5%
CCOC(=O)c1ccc(NC(=O)CSc2nnc(-c3ccncc3)n2C)cc1	-3.5	-82	-3	74	42%
NC(=O)N=Nc1c(O)n(Cc2ccccc2)c2ccc(Br)cc12	-1.9	.	.	-2	.
CCOc1ccc(S(=O)(=O)N2CCC(C(=O)OCc3ccc(OC)cc3)CC2)cc1	2.6	.	.	18	.
O=C(NCc1ccco1)C1CCN(C(=O)c2cc3sccc3n2Cc2ccc(F)cc2)CC1	3.6	-15	-20	8	6%

Compound activity: PubChem BioAssay, several laboratories
